PD-1 reversal: activators reversing PD-1 mediated T-cell inhibition, primary screen, luminescence, primary human CD4 T cells, PD-L1 beads; CellTiter-Glo 96 h; activation, % (test concentration not listed); 29,000 tested, under 10 active;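 active = replicate mean of 50% or more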;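 also: 0% = median vehicle wells and 100% = positive control; 100 nL library stock added to about 50 µL; numbers are from one replicate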
YB-1 expr inh: inhibitors of YB-1 gene expression, primary screen, cell-based, fluorescence; 0.37% of 30,000 active; AID 434959, 2010; U2OS, qRT-PCR YB-1 vs CDIP delta delta Cp, 16 h; active compounds read high; zero = DMSO, each unit about twofold; delta delta Cp (YB-1 minus CDIP) (no concentration beside the values);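 active = delta delta Cp rounded down to an integer at or above 3, about 3 SD of DMSO wells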;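 also: higher means less YB-1 transcript or more CDIP transcript relative to DMSO; stock transfer was 100 nL into about 100 µL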
Hedgehog inh: Hedgehog pathway signaling inhibitors, primary screen, luminescence, Shh-LIGHT2 cells, Gli-luciferase | Shh-LIGHT2 Gli-luciferase reporter, 30 h | inhibition, % (concentration not given with the values) | 2.1% of 22,000 active | AID 2313, 2010;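 active = replicate mean of 65% or more; inconclusive = mean lower but half the replicates past it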;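 also: pathway switched on by Shh-conditioned medium diluted 1 in 25 in low serum; 100 nL library stock added to about 40 µL; 0% = median of neutral wells and 100% = positive control level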
MITF inhib: inhibitors of MITF, primary screen, MITF inhibitor project, cell-based, luminescence | AID 2240, 2010 | TRPM1 promoter luciferase, 24 h | inhibition, % (no concentration beside the values) | 0.28% of 37,000 active;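 active = most replicates at 85% or more, or half of them and the mean; inconclusive = half reach 85% but not the mean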;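 also: human melanocyte line stably carrying TRPM1 promoter luciferase reporter; 0% = vehicle wells and 100% = a positive control; the first replicate is given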
* = called active by the depositor; ? = inconclusive; · = not tested or not shown. The list is partial; rates above refer to the full screens.

The first 12 compounds, ahead of the listing:
Every second line gives: PD-1 reversal, YB-1 expr inh, Hedgehog inh, MITF inhib
> Cc1cccc(OCC(=O)Nc2cccc(-c3nc4ccccc4[nH]3)c2)c1C
 : -0.1, ·, ·, -51
> C[C@H](CO)N1C[C@H](C)[C@@H](CN(C)Cc2ccncc2)Oc2c(NS(=O)(=O)c3ccc(F)cc3)cccc2C1=O
 : -1.3, -0.14, 22, -13
> COc1ccc(S(=O)(=O)Nc2cccc3c2O[C@H](CN(C)Cc2ccc(C(=O)O)cc2)[C@H](C)CN([C@@H](C)CO)C3=O)cc1
 : 0.9, 0.1, -3, -4
> COc1ccc(NC(=O)Nc2ccc3c(c2)C(=O)N([C@H](C)CO)C[C@H](C)[C@H](CN(C)C(=O)Nc2ccc(C(F)(F)F)cc2)OCCCC[C@@H](C)O3)cc1
 : -3.8, -0.35, -12, -4
> C[C@@H]1CN([C@@H](C)CO)C(=O)Cc2cc(NS(=O)(=O)c3ccc(F)cc3)ccc2O[C@@H]1CN(C)C(=O)Nc1ccc(C(F)(F)F)cc1
 : -2.1, 0.26, 13, -2
> C[C@H]1CN([C@@H](C)CO)C(=O)Cc2cc(NC(=O)Cc3ccccc3)ccc2O[C@H]1CN(C)S(=O)(=O)c1cccs1
 : 0.0, -0.06, -3, -3
> C[C@H]1CN([C@@H](C)CO)C(=O)c2cc(NC(=O)Nc3ccc(F)cc3)ccc2O[C@H]1CN(C)Cc1ccncc1
 : -1.5, 0.29, ·, -9
> C[C@@H]1CN([C@H](C)CO)C(=O)c2cc(NC(=O)NC3CCCCC3)ccc2O[C@H]1CN(C)Cc1ccc2c(c1)OCO2
 : 0.7, 0.42, 13, 2
> CCOc1ccc(S(=O)(=O)NCCN2CCOCC2)cc1C
 : 3.6, ·, ·, 0
> O=C(O)CCS(=O)(=O)c1nc(-c2ccccc2)cc(C(F)(F)F)n1
 : 0.1, ·, ·, -24
> CC(=O)Nc1sc2c(c1SC#N)CCCC2
 : -7.7, 0.3, ·, 4
> CNC[C@H]1Oc2ccc(NS(=O)(=O)c3ccccc3)cc2C(=O)N([C@@H](C)CO)C[C@@H]1C
 : 1.7, -0.017, ·, 5

This part in full (from the top)
Every second line gives: PD-1 reversal, YB-1 expr inh, Hedgehog inh, MITF inhib
> Cc1cccc(OCC(=O)Nc2cccc(-c3nc4ccccc4[nH]3)c2)c1C
 : -0.1, ·, ·, -51
> C[C@H](CO)N1C[C@H](C)[C@@H](CN(C)Cc2ccncc2)Oc2c(NS(=O)(=O)c3ccc(F)cc3)cccc2C1=O
 : -1.3, -0.14, 22, -13
> COc1ccc(S(=O)(=O)Nc2cccc3c2O[C@H](CN(C)Cc2ccc(C(=O)O)cc2)[C@H](C)CN([C@@H](C)CO)C3=O)cc1
 : 0.9, 0.1, -3, -4
> COc1ccc(NC(=O)Nc2ccc3c(c2)C(=O)N([C@H](C)CO)C[C@H](C)[C@H](CN(C)C(=O)Nc2ccc(C(F)(F)F)cc2)OCCCC[C@@H](C)O3)cc1
 : -3.8, -0.35, -12, -4
> C[C@@H]1CN([C@@H](C)CO)C(=O)Cc2cc(NS(=O)(=O)c3ccc(F)cc3)ccc2O[C@@H]1CN(C)C(=O)Nc1ccc(C(F)(F)F)cc1
 : -2.1, 0.26, 13, -2
> C[C@H]1CN([C@@H](C)CO)C(=O)Cc2cc(NC(=O)Cc3ccccc3)ccc2O[C@H]1CN(C)S(=O)(=O)c1cccs1
 : 0.0, -0.06, -3, -3
> C[C@H]1CN([C@@H](C)CO)C(=O)c2cc(NC(=O)Nc3ccc(F)cc3)ccc2O[C@H]1CN(C)Cc1ccncc1
 : -1.5, 0.29, ·, -9
> C[C@@H]1CN([C@H](C)CO)C(=O)c2cc(NC(=O)NC3CCCCC3)ccc2O[C@H]1CN(C)Cc1ccc2c(c1)OCO2
 : 0.7, 0.42, 13, 2
> CCOc1ccc(S(=O)(=O)NCCN2CCOCC2)cc1C
 : 3.6, ·, ·, 0
> O=C(O)CCS(=O)(=O)c1nc(-c2ccccc2)cc(C(F)(F)F)n1
 : 0.1, ·, ·, -24

Carrying on.
Every second line gives: PD-1 reversal, YB-1 expr inh, Hedgehog inh, MITF inhib
> CC(=O)Nc1sc2c(c1SC#N)CCCC2
 : -7.7, 0.3, ·, 4
> CNC[C@H]1Oc2ccc(NS(=O)(=O)c3ccccc3)cc2C(=O)N([C@@H](C)CO)C[C@@H]1C
 : 1.7, -0.017, ·, 5
> CNC[C@H]1Oc2ccc(NC(=O)Nc3ccc(OC)cc3)cc2CC(=O)N([C@@H](C)CO)C[C@@H]1C
 : 2.6, 0.47, -20, -4
> C[C@@H]1CN([C@@H](C)CO)C(=O)c2cccc(NS(=O)(=O)c3ccc(Cl)cc3)c2O[C@@H]1CN(C)C(=O)Nc1ccc2c(c1)OCO2
 : -2.6, -0.46, 15, 17
> C[C@H]1CN([C@@H](C)CO)C(=O)Cc2cc(NC(=O)Nc3ccc(C(F)(F)F)cc3)ccc2O[C@H]1CN(C)Cc1ccc2c(c1)OCO2
 : 3.1, 0.18, 7, 10
> Cc1c(CNC(=S)Nc2cccc([N+](=O)[O-])c2)cnn1C
 : 0.3, ·, ·, -53
> C[C@@H]1CN([C@H](C)CO)C(=O)Cc2cc(NC(=O)c3ccncc3)ccc2O[C@@H]1CN(C)CC1CCCCC1
 : 1.5, 0.21, 5, 10
> Cc1noc(C)c1NC(=O)Nc1ccc2c(c1)C(=O)N([C@@H](C)CO)C[C@H](C)[C@H](CN(C)C(=O)Nc1ccccc1)O2
 : -0.3, -0.49, 14, 5
> C[C@@H]1CN([C@H](C)CO)C(=O)Cc2cc(NC(=O)C3CCCCC3)ccc2O[C@H]1CN(C)CC1CCCCC1
 : 1.2, -0.15, -17, -7
> C[C@@H]1CN([C@@H](C)CO)C(=O)c2cc(NC(=O)Cc3ccccc3)ccc2O[C@H]1CN(C)S(=O)(=O)c1cccs1
 : -1.0, -0.078, 23, -5

(further entries)
Every second line gives: PD-1 reversal, YB-1 expr inh, Hedgehog inh, MITF inhib
> C[C@@H]1CN([C@H](C)CO)C(=O)c2cc(NS(=O)(=O)c3ccc(F)cc3)ccc2O[C@@H]1CN(C)C
 : ·, 0.33, -13, 10
> CCc1ccc(Nc2nc3ccccc3nc2NS(=O)(=O)c2ccc(C)cc2)cc1
 : -0.1, 0.05, 43, -9
> Cc1ccc(NC(=O)C2CC(=O)n3ncnc3N2)cc1 (centres undefined)
 : 1.4, ·, ·, -4
> Cc1noc(C)c1NC(=O)N(C)C[C@H]1Oc2c(NS(=O)(=O)c3cccs3)cccc2C(=O)N([C@@H](C)CO)C[C@@H]1C
 : 0.7, -0.022, 6, -2
> Cc1sc2c(c1C)CN(Cc1ccco1)CN2C(=O)c1ccccc1
 : 0.6, -0.12, -38, 4
> C[C@@H]1CN([C@H](C)CO)C(=O)Cc2cc(NC(=O)Cc3cn(C)c4ccccc34)ccc2O[C@H]1CN(C)C
 : 0.3, 0.12, 10, -2
> C[C@H](CO)N1C[C@H](C)[C@@H](CN(C)C(=O)Nc2ccccc2)Oc2c(NC(=O)Nc3ccc(F)cc3)cccc2C1=O
 : -0.5, 0.13, -19, -22
> O=C(CSc1nnnn1-c1ccc(Cl)cc1)Nc1ccc(Cl)cc1Cl
 : -5.1, ·, ·, 15
> C[C@@H]1CN([C@H](C)CO)C(=O)Cc2cc(NC(=O)CCC(F)(F)F)ccc2O[C@@H]1CN(C)C(=O)Nc1ccc2c(c1)OCO2
 : 0.0, 0.18, -2, 5
> C[C@@H]1CN([C@H](C)CO)C(=O)c2cc(NC(=O)c3ccncc3)ccc2O[C@@H]1CN(C)S(=O)(=O)c1ccc(F)cc1
 : ·, 0.15, -72, -8

Additional structures follow:
Every second line gives: PD-1 reversal, YB-1 expr inh, Hedgehog inh, MITF inhib
> C[C@H](CO)N1C[C@H](C)[C@H](CN(C)C(=O)Nc2cccc3ccccc23)Oc2ccc(NC(=O)CCCN(C)C)cc2C1=O
 : 0.0, -0.39, ·, 9
> COC(=O)c1ccccc1NC(=O)CN1CCOCC1
 : -0.7, ·, ·, -10
> CCCCn1c(SCC(N)=O)nc2c1c(=O)n(C)c(=O)n2C
 : 2.2, ·, ·, -22
> C[C@@H]1CN([C@H](C)CO)C(=O)Cc2cc(NC(=O)NC3CCCCC3)ccc2O[C@H]1CN(C)Cc1ccc(-c2ccccc2)cc1
 : -3.0, -0.063, ?, 25
> COc1ccc(C(=O)/C=C/Nc2ccc(C(F)(F)F)cc2)cc1
 : -0.2, 0.087, -123, -41
> COc1ccc(S(=O)(=O)Nc2ccc3c(c2)C(=O)N([C@H](C)CO)C[C@@H](C)[C@H](CN(C)Cc2ccc(C(=O)O)cc2)O3)cc1
 : 0.3, -0.11, ·, -6
> CCOC(=O)c1ccc(NC(=O)CSc2ncccn2)cc1
 : 1.1, ·, ·, -103
> C[C@@H]1CN([C@@H](C)CO)C(=O)c2cccc(NC(=O)C3CC3)c2O[C@H]1CN(C)Cc1ccc(Oc2ccccc2)cc1
 : -4.4, -0.28, 2, 27
> C[C@H](CO)N1C[C@H](C)[C@@H](CN(C)C(=O)Nc2ccc(C(F)(F)F)cc2)Oc2ccc(NC(=O)c3ccncc3)cc2C1=O
 : -2.1, 0.026, ·, -4
> C[C@@H]1CCCCO[C@@H](CN(C)C(=O)c2ccccc2)[C@@H](C)CN([C@H](C)CO)C(=O)c2cc(NC(=O)C3CCCCC3)ccc2O1
 : -0.5, -0.66, ·, 8

(continued)
Every second line gives: PD-1 reversal, YB-1 expr inh, Hedgehog inh, MITF inhib
> CC1(C)CC(NC(=O)CC(c2ccc(F)cc2)c2ccco2)CCO1 (centres undefined)
 : 0.2, ·, ·, -18
> COc1ccc(S(=O)(=O)Nc2cccc3c2O[C@@H](CN(C)Cc2ccncc2)[C@H](C)CN([C@@H](C)CO)C3=O)cc1
 : 0.1, 0.19, -57, -11
> C[C@@H]1CN([C@H](C)CO)C(=O)Cc2cc(NC(=O)CCCCCC(=O)Nc3ccccc3N)ccc2O[C@@H]1CN(C)C(=O)Nc1ccc(C(F)(F)F)cc1
 : -0.2, -0.33, ·, -18
> CC1=NN(c2ccccc2)C(=O)C1C (centres undefined)
 : 1.7, 0.057, -99, -12
> COc1ccc(S(=O)(=O)Nc2ccc3c(c2)CC(=O)N([C@H](C)CO)C[C@H](C)[C@H](CN(C)C(=O)Nc2ccc4c(c2)OCO4)O3)cc1
 : ·, 0.17, -7, -6
> C[C@H]1CN([C@@H](C)CO)C(=O)c2cccc(NS(=O)(=O)c3ccc(F)cc3)c2O[C@@H]1CN(C)S(=O)(=O)c1cccs1
 : 0.6, 0.28, -7, 0
> Cc1cc(C)c(C#N)c(SCC(O)CSc2ccc(Cl)cc2)n1 (centres undefined)
 : 0.4, ·, ·, -15
> Cc1ccc(S(=O)(=O)Nc2ccc3c(c2)C(=O)N([C@@H](C)CO)C[C@@H](C)[C@H](CN(C)S(=O)(=O)c2ccccc2)O3)cc1
 : -0.1, 0.27, -12, -12
> C[C@H]1CN([C@@H](C)CO)C(=O)c2cc(NC(=O)Cc3cn(C)c4ccccc34)ccc2O[C@@H]1CN(C)C(=O)Nc1ccc(C(F)(F)F)cc1
 : -3.5, 0.12, 12, 33
> C[C@@H]1CN([C@H](C)CO)C(=O)c2cccc(NC(=O)Nc3ccccc3)c2O[C@@H]1CN(C)C(=O)NC1CCCCC1
 : -2.1, 0.24, -37, 7

Next part.
Every second line gives: PD-1 reversal, YB-1 expr inh, Hedgehog inh, MITF inhib
> Cc1ccc(C(=O)CSc2nnc(-c3cccc(F)c3)n2-c2ccccc2)c(C)c1
 : -1.3, ·, ·, 22
> CCOC(=O)c1sc2sc(C(=O)OCC)c(-c3ccc(Cl)cc3)c2c1N
 : -1.3, 0.083, 0, -2
> CC(C)NC(=O)Nc1ccc2c(c1)CC(=O)N([C@H](C)CO)C[C@@H](C)[C@@H](CN(C)S(=O)(=O)c1ccc(Cl)cc1)O2
 : -0.3, -0.36, -36, -9
> C[C@H]1CN([C@@H](C)CO)C(=O)c2cccc(NS(=O)(=O)c3ccc(Cl)cc3)c2O[C@@H]1CN(C)Cc1ccc(C(=O)Nc2ccccc2N)cc1
 : -2.6, -0.14, ·, 28
> CS(=O)(=O)N(CC(=O)Nc1cc(Cl)c(Cl)cc1Cl)C1CCCCC1
 : 0.6, ·, ·, 4
> Cc1cc(C)cc(N(C(C)C(=O)O)S(C)(=O)=O)c1 (centres undefined)
 : 2.5, ·, ·, -6
> Cc1cc2c(c(Sc3ccc(Cl)cc3)n1)C(=O)NC2=O
 : -7.7, -0.56, -54, -5
> COc1ccc(NC(=O)Nc2cccc3c2O[C@@H](CN(C)S(=O)(=O)c2cccs2)[C@H](C)CN([C@H](C)CO)C3=O)cc1
 : -0.5, -0.051, 8, 0
> COc1cc(NC(=O)COc2ccccc2Cl)ccc1NC(=O)c1cc2ccccc2o1
 : -2.8, ·, ·, -31
> C[C@H](CO)N1C[C@H](C)[C@@H](CN(C)C(=O)Nc2ccc3c(c2)OCO3)Oc2ccc(NC(=O)Cn3cnnn3)cc2C1=O
 : 0.3, -0.37, 26, -10
